# Beta cell apopt: beta cell apoptosis inhibition | protection from apoptosis, % (test concentration not listed) | actives 0.8% (n = 300,000) | AID 435005 | INS-1E cytokine-induced death, ATP luminescence, 48 h; percent of positive-control rescue, neutral wells zero;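 active means all replicates at 75% or more, or half of them and the mean; inconclusive means half reach 75% but not the mean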;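 further: 0% = cytokine-treated negative control wells and 100% = positive control rescue; higher means more ATP so stronger rescue from cytokine killing; wells of about 40 µL received 100 nL stock; the first replicate is given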
# MLL AF4-AF9 inh: inhibitors of human MLL-AF4/AF9 interaction. actives 0.47% (n = 350,000). AlphaScreen, biotin-AF4 peptide binding to FLAG-AF9. inhibition, % at 10 µM. P42568. AID 651704;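 active means every replicate reaching a set inhibition limit, whatever the replicate mean, cut at about 25% in these data; inconclusive means mean inhibition reaches that limit but some replicates miss it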;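 further: 0% = plate neutral control median and 100% = total signal loss; the record names both 10 and 1 µM as test concentration; the first replicate is given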
# Target sequence (P42568 whole entry, looked up): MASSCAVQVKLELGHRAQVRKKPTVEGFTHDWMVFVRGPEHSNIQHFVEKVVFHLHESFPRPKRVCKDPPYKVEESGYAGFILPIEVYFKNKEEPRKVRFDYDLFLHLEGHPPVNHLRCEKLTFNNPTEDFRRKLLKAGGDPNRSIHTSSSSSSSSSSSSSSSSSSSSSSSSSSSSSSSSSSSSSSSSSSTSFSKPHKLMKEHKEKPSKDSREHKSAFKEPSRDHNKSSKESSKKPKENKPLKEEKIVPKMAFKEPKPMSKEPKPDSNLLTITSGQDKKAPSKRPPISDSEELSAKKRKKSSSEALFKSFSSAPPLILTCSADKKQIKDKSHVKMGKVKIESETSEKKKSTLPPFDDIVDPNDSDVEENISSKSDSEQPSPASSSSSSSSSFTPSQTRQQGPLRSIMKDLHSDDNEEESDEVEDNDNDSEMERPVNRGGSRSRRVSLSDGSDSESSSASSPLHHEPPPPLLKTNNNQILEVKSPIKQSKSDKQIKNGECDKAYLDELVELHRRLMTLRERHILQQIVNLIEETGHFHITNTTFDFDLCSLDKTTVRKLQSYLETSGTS
# T cruzi inh: blocks replication of Trypanosoma cruzi. T. cruzi beta-gal in NIH3T3, luminescence, 90 h. inhibition, % (concentration not given with the values). actives 1.4% (n = 300,000). AID 1885;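 active means mean inhibition across valid replicates above about 55%, limit read from the data; inconclusive means mean below that limit but half or more replicates reach it; inactive means mean below it, under half of replicates reach it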;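 further: signal also drops with host cell toxicity which is not excluded here; 0% = plate median of DMSO wells and 100% = zero luminescence signal; higher percent means less beta-gal luminescence so fewer parasites; stock transfer was 50 nL into about 50 µL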
# Vif TR-FRET: HIV-1 Vif–A3G interaction blockers – biochemical, TR-FRET, GST-Vif 1-94, biotin-A3G peptide, dose response retest, primary screen (AID 1117319); TR-FRET GST-Vif / biotin-A3G peptide binding; higher % means a stronger effect; test concentration not given here; strong numbers were not always called active; one-dose inhibition, %; IC50 in µM for titrated hits; actives 0.57% (n = 260,000);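 active means above the screen mean plus three standard deviations and confirmed in dose response; inconclusive means results disagree or hit not tested in dose response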;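 further: Vif residues 1-94 fused to GST binding biotinylated APOBEC3G peptide 110-148; 0% = full assay without inhibitor and 100% = GST in place of GST-Vif; retest series ran down from 100 µM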
# Bfl-1 A1 inh: inhibitors of the anti-apoptotic protein A1, read as caspase activation; actives 0.066% (n = 330,000); caspase activation, % (no concentration beside the values); MEF A1-2A-BIM cells, Caspase-Glo 3/7 luminescence, 3 h; percent of clofoctol response, vehicle zero;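 active means over half of replicate activation scores above 10%, or exactly half above 10 with the replicate mean above 10; inconclusive means replicate mean below 10 yet half the replicates above 10; inactive means over half of replicates below 10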;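 further: wells of about 30 µL received 50 nL stock; many hits fall short of the cut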
# Calb FLC: affects C. albicans growth with fluconazole; C. albicans CaCi-2 (fluconazole-resistant clinical isolate) + fluconazole, Alamar Blue growth, 48 h; growth inhibition, % (test concentration not listed); actives 0.57% (n = 300,000);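 active means most replicates above 75%; inconclusive means exactly half above 75%; inactive means most below 75%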;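 further: all wells also contain fluconazole at 8 µg/ml as a sub-toxic cotreatment; 0% = median of DMSO wells and 100% = median of geldanamycin control wells; wells of about 8 µL received 7.5 nL stock; the first replicate is given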
# rRNA inh HTS: selective bacterial rRNA inhibition in E. coli; E. coli WT GFP vs humanized-ribosome RFP mutants, fluorescence, 24 h; hits give low values; DMSO median 0, no signal -100; GFP signal change (wild-type ribosome), % (test concentration not listed); actives 1.6% (n = 350,000);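 active means significant combined selectivity score with lowered wild-type GFP, culture density cut under 30%, mutant RFP and density less affected; inactive means any of these conditions unmet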; further: one replicate is shown; some compounds called inactive have numbers as strong as hits
# RanGTP-Impb inh: disruptors of Ran-importin-beta complex formation – biochemical, FRET, CFP-Ran, YFP-importin-beta, homogeneous, primary screen; inhibition, % (test concentration not listed); cell-free CFP-Ran/YFP-importin-beta FRET ratio; AID 2216; actives 1.1% (n = 300,000);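 active means most replicates above 15%; inconclusive means exactly half above 15%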;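 further: 0% = DMSO wells and 100% = Ran loaded with GDP instead of GTP; wells of about 40 µL received 100 nL stock; the first replicate is given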
# rRNA inh HTS OD600: also measured in rRNA inh HTS; calls as there; OD600 change, %; measured here: OD600 growth;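 optical density of the mix in the first replicate; 0 = DMSO median and -100 = no signal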
# rRNA inh HTS RFP: further read-out of rRNA inh HTS, marked with its call; RFP signal change, %; measured here: RFP humanized mutant strains;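 first replicate; 0 = DMSO median and -100 = no signal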
# An asterisk follows results filed as active; ? = inconclusive; . = no result given.
SMILES,Beta cell apopt,MLL AF4-AF9 inh,T cruzi inh,Vif TR-FRET,Bfl-1 A1 inh,Calb FLC,rRNA inh HTS,rRNA inh HTS OD600,rRNA inh HTS RFP,RanGTP-Impb inh
CC(=O)N1N=C(c2ccc(Cl)cc2)CC1c1ccco1 (stereo unspecified),2,-1.3,-1,-5%,-2.0,-3,-3,5,6.0,3.7
CC[C@@H](C)[C@H](NC(=O)Cc1c(C)c2cc3c(C)coc3c(C)c2oc1=O)C(=O)O,-3,-0.8,-16,-7%,1.1,-3,-16,-15,0.4,2.1
CCc1ccccc1NC(=O)COc1ccc2c(c1)OCO2,-5,-0.1,-12,3%,-0.6,-23,-11,-13,-7.4,-5.0
Cc1cc(C)n(C(=O)c2ccc(C)c(S(=O)(=O)N3CCCCC3)c2)n1,-3,.,-2,24%,0.2,?,.,.,.,-5.4
Cc1cc2oc(=O)cc(Cn3ncc(Cl)c(Cl)c3=O)c2cc1Cl,110*,.,57*,-11%,0.5,18,.,.,.,-1.1
O=c1c2ccccc2nc2n1CC/C2=C/N1CCN(c2cccc(C(F)(F)F)c2)CC1,-3,.,5,32%,-2.0,5,.,.,.,-5.2
C=CCNC(=O)NS(=O)(=O)c1ccc(C)cc1,-6,.,-14,11%,0.0,8,.,.,.,3.3
COc1ccc2nc(N/C(N)=N/C(=S)Nc3ccccc3)nc(C)c2c1,-3,3.9,50,-3%,-0.7,-5,-8,-36,2.5,-0.7
CCc1ccc(C(C)NC(=O)c2ccc3c(c2)OCO3)cc1 (stereo unspecified),0,-3.7,12,-13%,-0.5,-5,12,3,2.5,-2.4
O=C(Nn1c(C2CCCCC2)nc2ccccc2c1=O)c1ccc(Cl)c([N+](=O)[O-])c1,3,3.4,-24,2%,-0.8,-32,1,7,-2.8,-1.7
CC(C)(C)OC(=O)N1CCC(NC(=O)c2nc[nH]c2C(=O)N2CCN(c3ccccc3)CC2)CC1,-7,3.4,.,.,-0.3,.,2,-8,15,.
O=C(COC(=O)c1ccc(Br)o1)Nc1ccc2[nH]c(=O)[nH]c2c1,0,-6.4,.,1%,0.1,.,6,10,-1.3,.
N/C(=N\OC(=O)Cc1ccccc1[N+](=O)[O-])c1ccccn1,-4,-1.4,-15,.,-0.5,-1,4,9,-0.7,-5.8
CCOC(=O)/C(C#N)=C/c1cc2cc(C)c(C)cc2nc1Cl,5,4.9,3,9%,-1.2,1,9,2,-0.1,3.3
CCN(CC)S(=O)(=O)c1ccc(O)c(NC(=O)c2ccc(N3CCOCC3)c([N+](=O)[O-])c2)c1,6,-1.1,-2,0%,0.3,-6,-23,-21,6.6,-5.4
Cc1ccc(OCC(O)CNCc2ccccc2)cc1C (stereo unspecified),-3,-0.2,23,-2%,-0.6,0,0,2,0.2,-3.1
COc1ccccc1OCC(=O)Nc1ccccn1,-1,.,1,-4%,-7.8,-6,.,.,.,-3.8
CCC(C)CCCCCCCCCCC(=O)O (stereo unspecified),3,1.1,-18,.,-0.3,-13,.,.,.,-3.8
CN(C)c1nc(NCc2ccccc2)nc(SCC(=O)Nc2ccccc2)n1,3,-1.7,14,8%,0.3,-11,-8,-4,-6.0,2.8
Cc1ccc(S(=O)(=O)NC(=O)Nc2ccc(F)c(F)c2)cc1,-1,1.9,-6,0%,-0.5,5,8,7,-0.3,6.6

# Reprinted at random: two records from the list.
SMILES,Beta cell apopt,MLL AF4-AF9 inh,T cruzi inh,Vif TR-FRET,Bfl-1 A1 inh,Calb FLC,rRNA inh HTS,rRNA inh HTS OD600,rRNA inh HTS RFP,RanGTP-Impb inh
Cc1cc(C)n(C(=O)c2ccc(C)c(S(=O)(=O)N3CCCCC3)c2)n1,-3,.,-2,24%,0.2,?,.,.,.,-5.4
COc1ccccc1OCC(=O)Nc1ccccn1,-1,.,1,-4%,-7.8,-6,.,.,.,-3.8

# (cont.)
SMILES,Beta cell apopt,MLL AF4-AF9 inh,T cruzi inh,Vif TR-FRET,Bfl-1 A1 inh,Calb FLC,rRNA inh HTS,rRNA inh HTS OD600,rRNA inh HTS RFP,RanGTP-Impb inh
COc1ccc(CNC(=O)c2cncc(Br)c2)cc1,-4,0.7,-4,-8%,0.1,-2,8,3,-0.8,7.5
CC(NC(=O)NC1CCCCC1)c1ccc2c(c1)OCO2 (stereo unspecified),-2,-1.3,4,.,-0.2,?,14,12,-0.7,3.6
O=S(O)OC1CS(=O)(=O)CC1c1ccccc1 (stereo unspecified),-9,-2.3,-7,-7%,0.2,1,3,10,-6.5,2.6
O=C(NCc1cccs1)c1cc(C2CC2)on1,-5,0.7,4,1%,-0.8,-6,4,5,0.8,-4.0
CCC(=O)c1ccc(OCC(=O)Nc2ccc(N3CCCCC3)cc2)cc1,-3,-0.6,.,-2%,0.3,.,1,9,3.8,.
CCOC(=O)CC1NC(=O)c2ccccc21 (stereo unspecified),-1,.,0,19%,0.1,-1,.,.,.,1.9
CC(=O)N1CN(CCCn2ccnc2)Cc2c1sc1c2CCCC1,8,.,9,-2%,0.1,1,.,.,.,-1.7
CCOC(=O)c1c(NC(=O)C2C3C=CC(CC3)C2C(=O)O)sc(C)c1C (stereo unspecified),-6,.,-10,-3%,0.1,2,.,.,.,4.4
CC(C)CNC(=S)NC1CCCC1,0,.,-6,8%,-0.1,-16,.,.,.,4.8
CC1CCN(S(=O)(=O)c2ccc3c(c2)N(CC(=O)NCCCN2CCCCC2)C(=O)CS3)CC1,-6,1.8,16,-2%,0.5,-4,6,1,1.9,4.3
CCOc1ccc(C(=O)C2CCN(CC(=O)Nc3nccs3)CC2)cc1,2,1.5,13,.,1.1,18,-4,-6,0.1,-2.2
Cc1cc(N2CCN(C(=O)OC(C)(C)C)CC2)n2ncnc2n1,-3,.,4,8%,1.0,-6,.,.,.,-0.4
Cc1ccc(S(=O)(=O)CCC(=O)c2ccc(F)cc2)cc1,-23,-5.2,35,.,-0.3,-7,6,6,1.2,-3.0
Cn1c(CC(=O)Nc2ccccc2)c(Sc2ccccc2)c2ccccc21,-3,.,29,6%,0.9,-17,.,.,.,6.7
O=C(CSc1nc(-c2ccccc2)c(-c2ccccc2)[nH]1)Nc1nccs1,2,3.7,19,12%,-0.1,34,-48,-55,-18,-2.7
CC(C)C[C@H](NC(=O)C1(c2ccccc2)CCN(C(=O)OC(C)(C)C)CC1)C(=O)N1CCC[C@H]1C(=O)O,-3,-0.7,-5,2%,0.4,-1,1,2,-1.1,4.8
O=C(Nc1ccc(-c2cn3c(n2)SCC3)cc1)c1ccc2ccccc2n1,2,4.3,24,-9%,-1.6,62,-16,13,3.1,-0.3
Cc1ccc(C(=O)NNC(=O)CSc2nnc(-c3ccncc3)n2C)cc1,1,.,-3,8%,-0.3,-4,.,.,.,4.9
COc1cc2cc(C(=O)Nc3ccc4c(c3)OCCO4)[nH]c2cc1OC,1,5.2,-8,-3%,0.1,-4,-21*,-4.8*,-1.3*,-1.3
COc1ccc(F)cc1S(=O)(=O)NCc1cc(=O)n(C)c(=O)n1C,-2,0.6,-2,-2%,1.3,-6,9,14,-0.2,-0.2
COc1ccc(N(CC(=O)Nc2ccc(OC)cc2OC)S(=O)(=O)c2ccccc2)cc1,11,0.7,3,-4%,-0.1,-3,-11,-20,23,2.7
CC(=O)OCC1(C)CN(c2ccccc2)N(C(=O)c2ccc(C(C)(C)C)cc2)C1=O (stereo unspecified),.,3.8,25,-8%,.,-45,-5,-10,-3.7,-0.4
CC(C)[C@H](NC(=O)c1ccc(Cl)cc1Cl)C(=O)NNC(=O)c1ccco1,-4,-2.9,.,5%,-0.5,.,-1,11,3.8,.
Cc1cc(NC(=O)CN2C(=O)NC3(CCCCCC3)C2=O)ccc1Br,1,-1.4,.,4%,-1.3,.,-5,-38,-3.4,.
Cc1cccc(/C=C2\CCC(=C3SCCCS3)C2=O)c1,5,.,8,3%,0.3,-5,.,.,.,2.5
CCCCn1c(N)c(N(CCC(C)C)C(=O)c2cccc(S(=O)(=O)N3CCN(C)CC3)c2)c(=O)[nH]c1=O,-4,-1.2,0,-2%,0.5,.,6,5,1.2,-3.1
Oc1cccc(NC(=S)N=Nc2c(O)[nH]c3ccccc23)c1,-5,.,-7,.,0.1,5,-54*,-30*,-15*,2.3
CC(=O)Nc1ccc(S(=O)(=O)NCCc2ccccc2)cc1,-5,.,-24,8%,-0.4,-18,.,.,.,-2.3
O=C(Nc1ccc(Cl)cn1)C1CCCN1S(=O)(=O)c1ccc(Cl)cc1 (stereo unspecified),-3,.,-10,2%,0.6,9,.,.,.,-0.7
CC/C(C)=N/Oc1nc(C)cc(C)n1,2,-8.5,-17,.,0.1,-9,-4,-18,1.0,7.6
CCCCNC(=S)NNC(=O)CCn1nc(C)c(Br)c1C,4,.,-17,-1%,-0.4,6,.,.,.,6.6
O=C1NC(=O)c2c(NC(=O)C3CCCO3)cccc21 (stereo unspecified),-1,-42,1,8%,-0.2,22,1,1,3.6,1.7
Cc1cc(C)c2nc(-c3ccccn3)cc(C(=O)Nc3cc(C)on3)c2c1,7,.,25,0%,-0.1,-18,.,.,.,-9.1
CCOC(=O)N/N=C\c1ccc(OC/C=C/c2ccccc2)cc1,-4,-0.3,5,.,0.0,52,6,10,-0.1,-1.3
COc1ccc(CCN2C(=O)NC(NS(=O)(=O)c3ccccc3)(C(F)(F)F)C2=O)cc1OC (stereo unspecified),-5,-7.6,6,8%,-0.1,-10,1,8,2.2,0.2
CC(C)Nc1ccc(C(CC(N)=O)NC(=O)Cc2ccc(Br)cc2)cc1[N+](=O)[O-] (stereo unspecified),7,-2.0,5,.,-0.3,-4,3,12,-1.7,-3.3
O=S(=O)(Nc1ccc(S(=O)(=O)N2CCCC2)cc1)c1ccc(F)cc1,-8,-6.2,4,6%,0.1,-5,-2,4,-6.2,0.7
COc1ccccc1CNC(=O)COc1ccc2c(c1)CCC2,-4,-1.9,-11,-15%,0.5,4,-6,-4,2.1,-5.5
O=S1(=O)CCOC[C@H](Cc2ccccc2)N1Cc1ccc(F)cc1,6,.,-3,.,1.5,3,-3,-2,1.7,7.5
Cc1cc([N+](=O)[O-])ccc1NCc1cccc([N+](=O)[O-])c1,2,.,26,3%,0.4,6,.,.,.,-3.1
CC(CCc1ccccc1)NC(=O)COC(=O)C12CC3CC(CC(Br)(C3)C1)C2 (stereo unspecified),-5,.,-7,-2%,-0.6,-1,.,.,.,-2.1
COc1cccc(/C=C/C(=O)NCC2CCCCC2)c1,-8,-1.5,4,.,-1.7,9,-27,-24,-6.7,3.1
Cc1ccc(S(=O)(=O)c2nc(NCc3ccc4c(c3)OCO4)sc2Cl)cc1,-2,.,61*,3%,0.1,-15,.,.,.,2.4
Oc1ccc(CN2CCN(c3ccccc3)CC2)c2cccnc12,43,.,64*,6%,0.9,-7,-17,-8,-3.4,4.6
Clc1ccc(-c2nc(-c3ccncc3)no2)c(Cl)c1,-6,-2.1,-8,.,-4.8,5,8,6,-1.0,-0.3

# An excerpt. The share of hits here may be higher or lower than overall.
